NPYLR7 ag: activates Aedes aegypti NPYLR7 receptor | activation, % at 10 µM | 270,000 compounds, 0.15% hits | HEK293T NPYLR7/Galpha15, GCaMP6s calcium fluorescence | AID 1259423; in the data active means activation above about 40%;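 further: 0% = vehicle and 100% = reference agonist at the receptor; some compounds past the cut are filed as inactive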
NPYLR7 ag max-min: second read-out of NPYLR7 ag, no call of its own (marks repeat the call); activation, %; measured here: Max-Min RFU normalised activation; some inactives read as strong as hits;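 span of the calcium signal over five minutes; 0% = vehicle and 100% = native peptide agonist; compound fluorescence can raise it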
Numbers without * were called inactive; & = joins results of further samples. An excerpt; the hit share may differ from the screen's.

molecule	NPYLR7 ag max-min	NPYLR7 ag
COc1ccc(CC2CN(S(=O)(=O)N3CCCC3)CCO2)cc1 (stereo not drawn)	5	6
Cc1ccc(-c2nc3cc4c(cc3[nH]2)OCCO4)c(C)c1	1	0
CSc1nccc(N2CCCC3(CC2)CN(C)C(=O)O3)n1 (stereo not drawn)	4	16
CCCC(=O)OCC(O)CN(Cc1c(C)nn(-c2ccccc2)c1Oc1cccc(OC)c1)C(C)C (stereo not drawn)	5	0
Cc1c(C(=O)Oc2cccc3ccccc23)cccc1[N+](=O)[O-]	5	2
CN1CCN(C(CNC(=O)NC(C)(C)C)c2ccc3c(c2)CCCN3C)CC1 (stereo not drawn)	-7	-4
CCOC(=O)C1(Cc2cccc(OC)c2)CCN(Cc2c(C)nn(CC)c2C)CC1	9	4
CCc1ccc(CCC(=O)NCCc2ccc(S(N)(=O)=O)cc2)cc1	0	4
CCc1cn[nH]c1C1CCCN(C(=O)c2n[nH]c3ccc(C)cc23)C1 (stereo not drawn)	4	8
CCOC(=O)c1ccc2c(c1)CCCN2C(=O)c1ncoc1CC	1	1
CN(CCc1cn[nH]c1)C(=O)c1ccc(CC2CCCNC2)cc1 (stereo not drawn)	-2	0
C=CCOC(C)C(=O)Nc1cc(C(=O)OCC)ccc1-n1ccnc1 (stereo not drawn)	-3	-1
COc1ccc(C2c3ccsc3CCN2C(=O)CN(C(=O)c2ccc(Cl)cc2)C2CC2)cc1 (stereo not drawn)	-2	-8
C1CCCC(CNC2CCC3(CC2)OCCO3)CC1	-4	-2
CC(C)(C)OC(=O)N1C(C(=O)N2CCc3ccccc3C2)CSC1c1cccc(Br)c1 (stereo not drawn)	-15	-9
CN(Cc1nnc(-c2ccc(F)cc2)o1)C1C2CCOC2C1(C)C (stereo not drawn)	3	5
COc1ccc(NC(=O)Nc2cccc3[nH]c(COCCO)nc23)cc1OC1CCCC1	17	-1
CN(Cc1nc2ccc(Cl)cc2[nH]1)Cc1nc(Cc2cccc(C(F)(F)F)c2)no1	-3	-3
CCOC(=O)c1nc2ccccc2nc1N1CCCN(C(=O)c2oc3ccccc3c2C)CC1	3	5
OC1(c2ccccc2)CCN(Cc2ccc(F)cc2Cl)C1 (stereo not drawn)	2	15
O=C(NCCc1ccccc1)N1CCCCC1CCn1ccnc1 (stereo not drawn)	-8	1
COCC(=O)Nc1ccc(C(=O)N2CCN3CCN(C)C(=O)C3C2)cc1 (stereo not drawn)	-2	-1
C=CCn1cnnc1SCC(=O)Nc1ccc(Cl)cc1	5	3
CCc1nc2nonc2c2nc3ccccc3n12	0	5
C(=C\c1ccccc1)/CN1CCN(Cc2nc(-c3ccc4c(c3)OCO4)no2)CC1	5	6
Cc1ccc(C)c(OCC(O)CN2CCCC(N3CCCC3)C2)c1C (stereo not drawn)	2	4
O=C(c1cc(Cl)cc(Cl)c1)N1CCC(CCc2ccc(-c3ccccc3)cc2)CC1	8	2
COC(=O)c1ccc(Cn2c(C)c(C(=O)NCC3CC3)sc2=O)o1	7	10
COc1cc(-c2nn(CN3CCc4ccccc4C3)c(=S)o2)cc(OC)c1OC	-2	1
COCCNC(=O)COc1ccc(C)cc1C(C)(C)C	4	4
Cc1ccc(-n2c(SCc3ccc(C(=O)NCc4ccncc4)cc3)nnc2-c2cccnc2)cc1	-1	0
CC(C(=O)Nc1ccccc1Cl)N1C(=O)c2ccccc2S1(=O)=O (stereo not drawn)	-1	2
OC(COc1ccc(Cl)cc1)CN(Cc1ccc(F)cc1)Cc1ccc2c(c1)OCO2 (stereo not drawn)	22	10
COCCN(CC(=O)N(CCc1c[nH]c2ccccc12)Cc1ccc(C)cc1)S(=O)(=O)c1ccc(OC)cc1	3	-1
N#Cc1cccc(OC2CC3CCC(C2)N3C(=O)c2ccc(CSCc3ccc(Cl)c(Cl)c3)cc2)c1 (stereo not drawn)	-1	16
CC1(C)NNC(=S)NC1=O	-6	-4
O=C(/C=C/c1ccc([N+](=O)[O-])s1)Nc1nnc(C2COc3ccccc3O2)o1 (stereo not drawn)	-6	-5
Cc1cccc(N2CC3ON=C(c4ccccc4)C3C2)c1 (stereo not drawn)	4	6
O=C(CCl)NCCOc1ccc(Cl)cc1	-7	-8
O=C(C1CCS(=O)(=O)C1)N(CCN1CCCC1)c1ccccc1 (stereo not drawn)	1	2
Cc1cc(=O)c(OCc2ccc(F)cc2)cn1CC(=O)N1CCN(c2ccccc2)CC1	1	3
Cc1cccc(CN2CCN(Cc3cc4cc(F)ccc4n3C)CC2)c1	7	12
CCCNC(=O)c1cc2nc(-c3ccc(F)cc3)cc(C(F)(F)F)n2n1	-15	-8
CN1CCN(P(=O)(c2ccccc2)c2nc3ccccc3s2)CC1 (stereo not drawn)	41	2
CCSc1nc(NCC(C)C)c2cnn(CCNC(=O)c3ccc(F)cc3F)c2n1	0	0
CCc1ccccc1NC(=O)N(CCOC)CC(=O)N(Cc1ccc2c(c1)OCO2)Cc1cccs1	14	7
CC(NS(=O)(=O)c1ccc(Br)cc1Cl)c1ccccc1F (stereo not drawn)	1	5
O=C(NCCn1cc(SCC(=O)N2CCOCC2)c2ccccc21)c1ccccc1	2	2

4 compounds already listed, sorted by length of the SMILES, highest first:
molecule	NPYLR7 ag max-min	NPYLR7 ag
CCc1ccccc1NC(=O)N(CCOC)CC(=O)N(Cc1ccc2c(c1)OCO2)Cc1cccs1	14	7
O=C(NCCn1cc(SCC(=O)N2CCOCC2)c2ccccc21)c1ccccc1	2	2
Cc1cccc(CN2CCN(Cc3cc4cc(F)ccc4n3C)CC2)c1	7	12
CC(NS(=O)(=O)c1ccc(Br)cc1Cl)c1ccccc1F (stereo not drawn)	1	5

Carrying on:
molecule	NPYLR7 ag max-min	NPYLR7 ag
CCOC(=O)C1CCN(C(c2cccnc2)c2c(O)cc(C)n(Cc3ccccc3)c2=O)CC1 (stereo not drawn)	11	16
CCc1cccc2c(C(CC(=O)O)c3ccccc3)cn(CC)c12 (stereo not drawn)	7	1
NS(=O)(=O)c1ccc(F)c(C(=O)OCC2CCCCC2)c1	-6	-3
Cn1nc(NC(=O)c2cc(-c3ccccc3)on2)c2c1NC(=O)CC2c1ccco1 (stereo not drawn)	-20	-16
O=C(c1ccc(Cl)cc1)N(Cc1nccn1Cc1ccc(F)c(F)c1)C1CC1	7	6
CNc1nc2cnc(Nc3ccc4c(c3)OCCO4)cc2n1-c1ccccc1	-14	-10
CCC(C(=O)Nc1cc(C2CC2)nn1-c1nc(C)cc(=O)[nH]1)c1ccccc1 (stereo not drawn)	3	2
COc1ccc(-c2nc(CSc3nc(-c4cccnc4)cc(=O)[nH]3)c(C)o2)cc1	-9	-5
CNC(=O)[C@@H]1C[C@H](n2cc(-c3ccc(CN4CCC(O)CC4)cc3)nn2)CN1	3	6
OCc1ccc(CN2CCCC(c3nc(-c4ccccc4)no3)C2)o1 (stereo not drawn)	2	1
Cc1ccccc1CNC(=O)CCc1c(C)noc1Cl	5	13
FC(F)n1nnn(-c2ccc(Cl)cc2)c1=S	-8	-3
Cc1nc2sc3c(NCC4CCCO4)ncnc3c2c2c1COC(C)(C)C2 (stereo not drawn)	0	4
CCCCn1ncc(C)c1NC(=O)Cc1c(C)nn(-c2ccccc2)c1C	7	21
CC1CN(c2ccc(Br)cc2)c2nc3c(c(=O)n(CCCO)c(=O)n3C)n2C1 (stereo not drawn)	5	5
COc1cc(C=C2SC(=S)NC2=O)cc(Br)c1O	942*	668*
CCSc1nnc2[nH]c(=O)cc(N)n12	10	2
CN1CCC2(CC1)CC(NC(=S)Nc1ccccc1)c1ccccc1O2 (stereo not drawn)	3	2
N#Cc1c(SCC(=O)OCc2ccccc2)nc2c(c1-c1ccc(O)cc1)CCCC2	-8	-2
CC12C=CC(C)(O1)C1C(=O)N(c3ccc4c(c3)OCO4)C(=O)C12 (stereo not drawn)	-7	4
CC(C)(C)OC(=O)C1(NCc2nccn2CC(F)(F)F)CCCC1	-5	-4
COc1cccc(Cc2nsc(Nc3ccc(C)c(C)c3)n2)c1	15	9
Cc1ccc(S(=O)(=O)NC2CCN(c3ccccc3C(=O)NC(C)c3ccccc3)CC2)cc1 (stereo not drawn)	7	-1
COC(=O)C1=C(C)NC(C)=C(C(=O)OC)C1c1ccc(OC)cc1	-15&-17	-14&-9

Whole records as entered above. Screens in order: NPYLR7 ag max-min | NPYLR7 ag
Entry for CN1CCC2(CC1)CC(NC(=S)Nc1ccccc1)c1ccccc1O2 (stereo not drawn) : 3 | 2
Entry for COC(=O)C1=C(C)NC(C)=C(C(=O)OC)C1c1ccc(OC)cc1 : -15&-17 | -14&-9
Entry for N#Cc1c(SCC(=O)OCc2ccccc2)nc2c(c1-c1ccc(O)cc1)CCCC2 : -8 | -2

Going on with the list.
molecule	NPYLR7 ag max-min	NPYLR7 ag
COC(=O)c1ccc(/C=C2\SC(=S)N(CCC(=O)O)C2=O)cc1	-11	-4
CC(=Cc1cccs1)C(=O)c1c(C)cc(C)[nH]c1=O	-7	-4
CN(C)c1nccnc1N1CCC(CO)(Cc2ccc(Cl)cc2)CC1	-5	9
CSCCNC(=O)C1(C)CCN1C(=O)c1ccccc1CCc1ccccc1 (stereo not drawn)	4	6
CC(C)c1cc(CN(C)c2cc(N(C)C)ncn2)on1	4	3
CN(C(=O)CSc1nccn1-c1cccc(F)c1)C1(C#N)CCCCC1	6	9
O=C(NCCn1nc(-c2ccco2)ccc1=O)c1ccc(C(F)(F)F)cc1	-2	0
CN(CC(=O)Nc1cccc(F)c1)C(=O)c1cncn1-c1ccc(F)cc1	8	4

Some values from the entries so far.
CSCCNC(=O)C1(C)CCN1C(=O)c1ccccc1CCc1ccccc1 (stereo not drawn) in NPYLR7 ag max-min reads 4
CC(=Cc1cccs1)C(=O)c1c(C)cc(C)[nH]c1=O in NPYLR7 ag max-min reads -7

Next section.
molecule	NPYLR7 ag max-min	NPYLR7 ag
O=C(Nc1nccs1)C12CC3CC(CC(C3)C1)C2	4	4
CCc1nnc(NC(=O)CCc2ncc(-c3ccccc3Cl)o2)s1	3	6
COc1ccccc1C(NC(=O)C1CCN(CCCOc2ccc(F)cc2)CC1)c1ccccn1 (stereo not drawn)	1	3
O=C(NCc1ccccc1)Nc1nnc([C@H]2C[C@H](O)[C@@H](CO)O2)s1	-3	-4
O=C(c1ccc[nH]1)N1CCC(Cc2n[nH]c(=O)n2-c2ccccc2)CC1	-5	-1
CCC(CC)(CC)NC(=O)Nc1cccc(CS(C)=O)c1C (stereo not drawn)	12	-1
O=C(Cn1cnc([N+](=O)[O-])n1)c1cccs1	5	12
OC(c1ccccn1)C1CCN(c2ncnc3[nH]ccc23)CC1 (stereo not drawn)	-3	1
CC1=NN(CC(=O)OCc2ccccc2)c2nc3c(c(=O)n(C)c(=O)n3C)n2C1C (stereo not drawn)	-1	-2
Cc1ccccc1Cn1c(=O)c2c(nc3n(CCO)c(C)c(C)n23)n(C)c1=O	-8	-5
COCCCn1cc(C(=O)N2CCN(C(=O)COC)CC2)c2nn(-c3ccccc3)c(=O)c-2c1	-4	-3
COc1cc(NC(=O)c2nnn(CC(=O)Nc3c(C)cc(C)cc3C)c2N)cc(OC)c1	-9	-4
CCNC(=O)c1coc(CN(Cc2ccc(F)cc2)Cc2ccc(OCC)cc2)n1	8	14
CCn1c(C)c(C(=O)CSc2nccc(=O)[nH]2)c2ccccc21	9	11
Cc1nonc1C1CCCN1C(=O)c1cc2n(n1)CCCN(C(C)C)C2 (stereo not drawn)	-6	-3
O=[N+]([O-])c1ccc(Nc2ccc(F)cc2)c(S(=O)(=O)N2CCOCC2)c1	-1	1
Cc1nc(CN(C)Cc2ccc(-n3cccn3)cc2)co1	2	4
CCOC(=O)Cn1c(=NC(=O)c2ccc(OC)c(OC)c2)sc2c(C)cc(C)cc21	3	-1
Cn1nc(-c2ccccc2)c(CN(CC(O)CN2CCOCC2)CC2CC2)c1Oc1ccc(Cl)cc1 (stereo not drawn)	7	8
CN(c1ccccc1)c1nc2ccsc2c(=O)s1	1	2
Cc1ccccc1C1SCC(=O)N1CCN(C(=O)C1CC1)C(C)C (stereo not drawn)	-1	-5
Cc1c(C(C)NC(=O)c2cc(C(C)C)no2)cnn1-c1cccc2ccccc12 (stereo not drawn)	3	10
O=S(=O)(Nc1ccc(Cl)cc1)c1ccc(F)c(F)c1F	43	1
Cc1cccc2sc(N(CCN(C)C)C(=O)c3cc(Cl)sc3Cl)nc12	-6	-3
CCN(CC)C1CCN(C(=O)CCc2nnc(CCc3ccccc3)o2)C1 (stereo not drawn)	1	4
CC(C)=CC(=O)N(C)c1ccc(-c2onc3c2CCc2ccccc2-3)cc1	5	4
CC(C)(C)c1ccc(COc2coc(CN3CCN(S(=O)(=O)c4ccc(Cl)cc4Cl)CC3)cc2=O)cc1	-5	2
Cc1cn2c3c(=O)n(CCC(C)C)c(=O)n(C)c3nc2n1C(C)c1ccccc1 (stereo not drawn)	4	2
O=S(=O)(/C=C/c1ccccc1Cl)Nc1cccnc1	2	7
CC1(C(=O)NS(=O)(=O)c2ccccc2C(F)(F)F)CCN1C(=O)CCc1ccccc1 (stereo not drawn)	6	3

Source: PubChem
